High-throughput results from PubChem.
Calb FLC: affects C. albicans growth with fluconazole; 0.57% of 300,000 active; growth inhibition, % (test concentration not listed); AID 1979; C. albicans CaCi-2 (fluconazole-resistant clinical isolate) + fluconazole, Alamar Blue growth, 48 h;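 active means most replicates above 75%; inconclusive means exactly half above 75%; inactive means most below 75%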;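 further: all wells also contain fluconazole at 8 µg/ml as a sub-toxic cotreatment; 0% = median of DMSO wells and 100% = median of geldanamycin control wells; wells of about 8 µL received 7.5 nL stock; the first replicate is given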
Beta2AR agonist: agonists of human beta-2 adrenergic receptor inducing internalization. P07550. Am2.2-beta2AR cells, FAP receptor internalization, flow cytometry; reference of the scale not given here. response, % (no concentration beside the values). 0.43% of 340,000 active;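 active means response above a set limit, near 3 SD of response in nonfluorescent compounds, cut at about 42% in these data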;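 further: stock transfer was 100 nL into about 11 µL; a reference agonist was the positive control; negative values mostly stem from fluorescent compounds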
A1 inh: inhibitors of the anti-apoptotic protein A1, read as caspase activation; MEF A1-2A-BIM cells, Caspase-Glo 3/7 luminescence, 3 h; percent of clofoctol response, vehicle zero; caspase activation, % (test concentration not listed); 0.066% of 330,000 active; AID 2462;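 active means over half of replicate activation scores above 10%, or exactly half above 10 with the replicate mean above 10; inconclusive means replicate mean below 10 yet half the replicates above 10; inactive means over half of replicates below 10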;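 further: wells of about 30 µL received 50 nL stock; many hits fall short of the cut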
LANA-H2B inh: blocks KSHV LANA binding to histone H2A/H2B; Q9QR71; inhibition, % (concentration not given with the values); 0.6% of 320,000 active; AID 2629; cell-free LANA-H2A/H2B peptide, fluorescence polarization; in the data active means inhibition mostly above about 10%, no sharp cut-off; inactive means mostly below about 6.7%;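 further: stock transfer was 7.5 nL into about 10 µL; 0% = median of vehicle wells and 100% = median of positive control wells; one replicate is shown; the record names a cut of 25% in any replicate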
Target sequence (Q9QR71 whole entry, looked up): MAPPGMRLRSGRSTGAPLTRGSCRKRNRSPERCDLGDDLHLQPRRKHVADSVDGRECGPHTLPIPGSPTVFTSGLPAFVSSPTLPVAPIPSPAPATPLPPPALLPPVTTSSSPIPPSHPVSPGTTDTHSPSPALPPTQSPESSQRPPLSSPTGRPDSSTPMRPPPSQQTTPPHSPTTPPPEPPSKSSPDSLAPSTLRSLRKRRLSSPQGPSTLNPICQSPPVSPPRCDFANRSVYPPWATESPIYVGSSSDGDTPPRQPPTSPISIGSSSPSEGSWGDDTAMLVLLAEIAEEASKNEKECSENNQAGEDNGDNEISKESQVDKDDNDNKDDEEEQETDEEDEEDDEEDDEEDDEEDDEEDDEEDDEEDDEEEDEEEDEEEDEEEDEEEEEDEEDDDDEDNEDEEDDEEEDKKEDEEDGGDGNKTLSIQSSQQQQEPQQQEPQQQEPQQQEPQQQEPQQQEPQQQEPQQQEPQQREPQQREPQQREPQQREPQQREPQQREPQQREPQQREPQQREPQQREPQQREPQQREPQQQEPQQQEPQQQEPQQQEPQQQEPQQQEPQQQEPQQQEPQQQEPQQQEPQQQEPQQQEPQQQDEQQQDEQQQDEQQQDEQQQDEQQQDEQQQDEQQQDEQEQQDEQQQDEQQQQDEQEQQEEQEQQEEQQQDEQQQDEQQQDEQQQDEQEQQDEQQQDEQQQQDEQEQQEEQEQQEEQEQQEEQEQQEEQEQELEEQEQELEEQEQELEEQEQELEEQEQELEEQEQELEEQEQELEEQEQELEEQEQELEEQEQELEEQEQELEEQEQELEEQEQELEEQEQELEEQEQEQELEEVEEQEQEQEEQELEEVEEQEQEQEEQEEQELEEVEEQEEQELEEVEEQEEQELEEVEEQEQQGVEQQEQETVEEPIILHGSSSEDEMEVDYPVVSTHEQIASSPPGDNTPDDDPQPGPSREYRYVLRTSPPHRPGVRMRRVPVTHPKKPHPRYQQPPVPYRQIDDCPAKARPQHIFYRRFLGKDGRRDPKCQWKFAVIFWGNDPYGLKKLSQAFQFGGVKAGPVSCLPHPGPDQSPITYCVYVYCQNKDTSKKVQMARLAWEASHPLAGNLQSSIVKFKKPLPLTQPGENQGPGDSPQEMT
UCH37 inh: blocks the human deubiquitinase UCH37 | Q9Y5K5 | purified proteasome/UCH37, Ub-AMC cleavage fluorescence | inhibition, % (concentration not given with the values) | 0.33% of 330,000 active;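 active means mean of two replicates above 20%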;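 further: 0% = compound-free wells with enzyme and 100% = wells lacking proteasome; stock transfer was 100 nL into about 20 µL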
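Material: human UCH37 enzyme supplied as purified proteasome complex / Amount: 0.15 nM proteasome as dispensed / Buffer or medium: pH 7.4 Tris-HCl (50 mM) with ovalbumin, ATP-MgCl2, DTT / Times: preincubation 30 min, reaction 25 min, room temperature / Technique: AMC fluorescence from Ub-AMC cleavage, excitation 355 nm, emission 460 nm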
RanGTP-Imp inh: disruptors of Ran-importin-beta complex formation – biochemical, FRET, CFP-Ran, YFP-importin-beta, homogeneous, primary screen | cell-free CFP-Ran/YFP-importin-beta FRET ratio | inhibition, % (no concentration beside the values) | 1.1% of 300,000 active;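 active means most replicates above 15%; inconclusive means exactly half above 15%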;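 further: 0% = DMSO wells and 100% = Ran loaded with GDP instead of GTP; wells of about 40 µL received 100 nL stock; the first replicate is given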
Beta apoptosis: blocks beta cell apoptosis; INS-1E cytokine-induced death, ATP luminescence, 48 h; percent of positive-control rescue, neutral wells zero; protection from apoptosis, % (test concentration not listed); 0.8% of 300,000 active; AID 435005;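 active means all replicates at 75% or more, or half of them and the mean; inconclusive means half reach 75% but not the mean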;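 further: 0% = cytokine-treated negative control wells and 100% = positive control rescue; higher means more ATP so stronger rescue from cytokine killing; wells of about 40 µL received 100 nL stock; the first replicate is given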
T cruzi inh: blocks replication of Trypanosoma cruzi | T. cruzi beta-gal in NIH3T3, luminescence, 90 h | inhibition, % (concentration not given with the values) | 1.4% of 300,000 active | AID 1885;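 active means mean inhibition across valid replicates above about 55%, limit read from the data; inconclusive means mean below that limit but half or more replicates reach it; inactive means mean below it, under half of replicates reach it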;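 further: signal also drops with host cell toxicity which is not excluded here; 0% = plate median of DMSO wells and 100% = zero luminescence signal; higher percent means less beta-gal luminescence so fewer parasites; stock transfer was 50 nL into about 50 µL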
Starred values were filed as active, the others as inactive; ? = inconclusive; . = not tested or not shown.

SMILES	Calb FLC	Beta2AR agonist	A1 inh	LANA-H2B inh	UCH37 inh	RanGTP-Imp inh	Beta apoptosis	T cruzi inh
COc1cccc(N2C(=O)c3cccnc3C2O)c1 (stereo not given)	-3.8	1.3	0.4	6.2	0.4	1.9	-3.8	-1.7
O=C(NCc1ccco1)c1nn2c(C(F)(F)F)cc(-c3cccs3)nc2c1Br	3.0	4.4	-0.5	-6.8	3.4	-5.7	7.6	19.3
COc1nc(OC)nc(N2CCC(NC(=O)C(Cc3ccc(C(C)C)cc3)NC(C)=O)CC2)n1 (stereo not given)	-2.4	0.1	0.2	0.8	1.8	1.7	11.3	-6.8
O=C(COC(=O)c1cnccn1)Nc1cccc(F)c1	.	1.5	0.1	4.5	1.7	.	-4.5	.
CCc1cc2c(=O)[nH]c(Cc3ccccc3)nc2s1	10.5	-7.1	-0.5	.	0.3	-0.9	0.1	-1.2
COc1ccc(NC2=CC(=O)CC(c3ccccc3)C2)cc1 (stereo not given)	3.2	-1.9	0.3	-3.7	-0.3	12.0	-1.1	9.7
CCC(=O)OCCCCCCOc1ccc(C(=O)O)cc1	-2.7	.	-1.1	-4.2	-1.5	5.0	-2.0	-17.4
CCOc1ncccc1C(=O)OCC(=O)c1cc(OC)c(OC)c(OC)c1	-1.9	5.1	0.2	-1.9	2.5	2.4	-0.6	-2.7
CCOC(=O)N1CCN(C(=O)/C(=C/c2ccc(N(C)C)cc2)NC(=O)c2ccccc2)CC1	.	-0.8	2.1	-10.9	13.9	.	-0.7	.
O=c1cc(CO)oc(C(Nc2ccccn2)c2ccccc2F)c1O (stereo not given)	-16.7	-1.9	0.2	-1.9	9.1	1.3	-7.1	-1.4
CC(C)C[C@H](NC(=O)Nc1ccc2c(c1)OCCO2)C(=O)O	-7.4	-1.0	0.4	-3.3	3.6	1.3	-4.7	-5.9
O=C(CC(C(=O)O)c1c(F)cccc1Cl)c1ccc(Cl)cc1 (stereo not given)	2.9	0.4	0.0	-2.4	6.8	0.7	0.2	11.1
Cc1ccccc1CCN(C(=O)c1csnn1)C(C(=O)NC1CCCC1)c1ccco1 (stereo not given)	4.6	6.8	1.1	0.4	0.6	3.3	2.8	12.8
CNc1ccc(/C=C/C(=O)c2ccc3c(c2)OCCO3)cc1[N+](=O)[O-]	11.8	-1.1	0.6	2.1	11.2	0.1	-9.4	-10.9
O=C(NC12CC3CC(CC(C3)C1)C2)C1CCCN1C(=O)Nc1ccccc1 (stereo not given)	0.7	-1.6	0.1	1.6	0.2	?	0.1	-2.9
COc1ccc(C2CC(=O)N(CC(=O)NCC3CCCO3)c3ccccc3S2)cc1 (stereo not given)	6.0	1.1	0.9	-8.0	4.5	-0.7	4.4	-11.1
CCCNC(=O)COC(=O)c1cccnc1Nc1ccccc1F	-0.2	-8.3	-1.7	-6.9	2.2	-2.7	-0.2	-14.7
COc1cc2c3c(c1)c(N=NC(N)=S)c(O)n3C(C)(C)C=C2C	-0.9	-12.2	1.7	-0.9	8.0	0.8	2.5	42.2
Cn1c(=O)c2c(nc(CN3CCN(C(=O)c4ccco4)CC3)n2CC(N)=O)n(C)c1=O	11.9	18.9	0.3	-0.4	-0.9	1.3	-2.4	-2.2
N#Cc1c(-c2ccccc2)cc(-c2ccccc2)nc1SCc1nnc(-c2ccccc2)o1	0.8	-7.7	0.8	0.4	-4.1	5.5	-6.1	32.1
CCOc1ccc(NC(=O)C2CC3CCC2C3)cc1 (stereo not given)	-18.7	-4.1	0.3	-2.7	1.8	5.7	0.5	-2.2
Cc1cnc(NC(=O)CSc2nnc(Cc3ccccc3)o2)s1	6.2	4.2	0.4	7.0	2.0	2.5	-0.1	-18.8
CCCC(=O)Nc1sc2c(c1C#N)CCCCC2	-6.3	-15.2	-1.0	8.5	1.9	-1.6	11.6	5.9
O=C(CSc1nnc(-c2ccc3c(c2)OCCO3)o1)N1CCCC1	-18.4	3.1	-1.0	-3.8	1.4	1.6	-1.1	2.8
CC(=O)Nc1ccc(NC(=S)NC(=O)c2oc3ccccc3c2C)cc1	-6.9	-9.5	0.3	-2.8	1.2	0.2	-6.7	3.5
Fc1ccc(CNC(=S)Nc2ccc(OC(F)F)cc2)cc1	-16.0	3.1	-0.4	-1.8	1.2	0.8	-9.0	16.7
COc1ccc(C(=O)NCCc2nc3cc([N+](=O)[O-])ccc3n2C)cc1	-0.9	1.9	-0.6	-3.5	6.3	-2.0	1.5	-12.5
COc1cc2ncnc(N[C@H](C)c3ccccc3)c2cc1OC	-1.2	2.6	-0.1	-2.5	1.2	-1.5	.	3.2
COC(=O)N/N=C/c1cc(Cl)cc(Cl)c1OCc1ccc(F)cc1	1.1	-6.6	-1.2	2.9	.	-2.6	8.7	27.5
CCOCCOC(=O)C(C)Oc1ccc(Oc2ncc(Cl)cc2Cl)cc1 (stereo not given)	13.1	4.2	0.1	5.5	4.9	5.7	-1.0	-8.7
COc1ccc(CCN(C)C(=O)C23CC4CC(CC(Cl)(C4)C2)C3)cc1OC	-13.1	8.7	-0.5	-4.2	1.4	-0.8	4.7	6.2
Cc1ccc(F)c(NC(=O)CCOc2ccccc2C)c1	-73.0	-16.1	-2.1	6.4	2.0	-1.6	-2.6	-11.8
CCc1ccccc1-n1nnnc1SCC(=O)Nc1ccc(N2CCN(C)CC2)cc1	-3.1	3.6	-0.3	4.5	-1.0	0.4	-7.5	7.4
N#C/C(=N\Nc1cccc2ccccc12)c1nnc2n1CCCCC2	-9.3	5.6	0.2	6.2	.	-6.4	-3.6	30.5
O=Cc1c(N2CCOCC2)nc2ccccn2c1=O	6.0	-9.7	0.4	2.8	6.6	3.3	-4.8	-6.2
COc1ccc(NCc2nnc(SCC(=O)Nc3cc(C)cc(C)c3)o2)cc1	-1.8	-2.5	-0.2	4.5	2.0	4.4	-9.5	4.7
Cc1ccc[n+](/C(C(=S)NCc2ccco2)=C(/[O-])c2ccccc2Cl)c1	-16.6	-4.1	?	1.5	3.8	-3.5	5.4	12.6
CCOC(=O)N1CCN(S(=O)(=O)c2ccc(C(=O)N(CCN(C)C)c3nc4ccc(Cl)cc4s3)cc2)CC1	-32.0	0.3	-0.5	-1.4	2.1	4.2	2.5	75.6*
Cc1c2cnn(CC(=O)NC3CCCC3)c(=O)c2c(C)n1Cc1ccccc1	-22.8	-3.9	0.3	-7.6	-0.2	-1.3	0.2	-4.2
COc1cc(-c2cc(OC)c3c(C)oc(C)c3c(=O)c2)ccc1O	3.6	-10.8	0.4	6.7	4.3	0.7	3.0	-25.2
Cc1ccc(C)c(NC(=O)C(=O)NCCc2c[nH]c3ccccc23)c1	0.5	2.3	-0.6	3.1	1.8	?	2.4	9.5
O=C(N/N=C/c1cccnc1)c1cccc(F)c1	4.3	-1.7	-1.6	-0.2	.	3.6	.	-12.6
CCc1cccc(NC(=S)N(CCOC)C(C)c2ccco2)c1 (stereo not given)	-1.7	4.7	0.5	-7.3	6.0	-1.3	8.7	-1.3
COc1ccc(C(=O)CN2C(=O)COc3ccccc32)cc1	-3.5	2.5	0.6	-7.9	-0.1	3.2	-1.8	-7.0
CCc1ccc(NC(=O)NCCN2CCc3ccccc3C2)cc1	.	18.0	0.2	-0.9	3.5	.	0.7	.
CCCn1c(N2CCN(C(=O)NCc3ccccc3)CC2)nc2ccccc21	-15.4	-16.0	-0.1	-2.3	1.9	-0.7	1.7	6.4
CC1CN(S(=O)(=O)c2ccc(C(=O)Nc3nc(-c4cc5ccccc5o4)cs3)cc2)CC(C)O1 (stereo not given)	-11.2	3.0	0.8	-2.8	-94.3	1.3	54.5	-8.6
CCOC(=O)c1c(C)n(C)c2ccc(OC(=O)c3ccco3)cc12	0.7	0.6	0.4	-2.3	-2.5	0.2	-2.7	7.6
OCCNc1nc(Nc2ccc(O)cc2)nc2ccccc12	17.4	-6.0	0.1	-3.2	9.9	-0.2	0.9	-4.6
Cc1ccc2c(c1)c1c(n2CC(O)CN2CCOCC2)CCCC1 (stereo not given)	-1.4	.	0.6	3.0	.	-2.4	-2.9	-9.8
O=C(CCCC(=O)N(CC(=O)NC1CCCC1)C1CCCC1)Nc1ccccn1	-1.8	-0.4	0.5	3.2	6.0	3.6	-2.4	-5.9
CC(C)N1CC(C(=O)Nc2ccc(F)c(Cl)c2)CC1=O (stereo not given)	1.5	4.2	1.4	6.1	-1.7	7.3	3.3	6.6
OCCC1CN(Cc2cccc(C(F)(F)F)c2)CCN1Cc1ccccc1 (stereo not given)	-12.0	-1.3	-0.1	-6.1	2.2	4.9	-0.4	54.7*
CCOc1ccccc1N1CCN(C(=O)NCc2ccc(F)cc2)CC1	5.4	-1.8	-0.3	-1.1	5.2	6.0	0.1	-2.3
CC(=O)NC(CSC(CC(=O)c1ccco1)c1ccc(C)cc1)C(=O)O (stereo not given)	22.0	1.2	-3.3	0.7	-0.6	2.8	1.4	-28.0
CSc1cccc(NC(=O)c2ccco2)c1	7.0	-20.4	-4.5	3.1	2.8	2.7	-4.1	-7.5
O=C(CCC1CCCCC1)N1CCN(Cc2ccc3c(c2)OCO3)CC1	-25.2	1.8	0.0	2.9	3.3	?	2.6	48.2
CSCC[C@H](NC(=O)C1CCN(S(=O)(=O)c2ccccc2)CC1)C(=O)NC1CC1	-3.7	-1.2	0.0	0.9	-2.6	?	-1.6	-24.7
CCc1c(C)sc(NC(=S)Nc2nc(C)cc(C)n2)c1C(=O)OC	7.4	5.0	1.3	0.3	7.2	-2.5	.	2.1
C=C(Br)Cn1c(CC)nc2ccccc21	16.4	7.1	-0.4	-1.0	1.6	-0.5	-8.0	0.9
The list goes on:
SMILES	Calb FLC	Beta2AR agonist	A1 inh	LANA-H2B inh	UCH37 inh	RanGTP-Imp inh	Beta apoptosis	T cruzi inh
Cc1ccc(N2C(=O)c3ccc(C(=O)N4CCN(c5ccccc5F)CC4)cc3C2=O)cc1	-2.5	14.2	0.6	4.6	2.6	1.5	-0.8	2.4
CCn1c(=S)[nH]c2ccccc21	18.1	-4.4	0.3	0.2	-2.5	6.9	-3.6	0.5
CCc1ccc(C2C3=C(CC(C)(C)CC3=O)OC3=C2C(=O)CC(C)(C)C3)cc1	-9.4	1.9	-0.9	-3.4	1.9	5.1	1.6	30.2
CSc1nc(-c2ccc(Cl)cc2)nn1S(=O)(=O)c1ccccc1	0.6	36.6	-1.3	-9.7	2.7	9.1	-2.7	-18.6
CCc1nc(C)cn1S(=O)(=O)c1ccc([N+](=O)[O-])cc1	10.0	2.6	0.8	-1.0	2.8	-0.3	-6.0	-3.2
COCCNC(=O)c1ccc(NS(C)(=O)=O)cc1	5.9	0.7	-0.2	-3.6	2.8	-0.5	-3.5	-13.6
CC(CN1CCCCC1)OC(=O)c1ccc(Cl)cc1 (stereo not given)	4.3	0.1	-0.1	1.8	2.3	1.5	-0.8	-3.1
O=C(CN1CCN(C(c2ccccc2)c2ccccc2)CC1)Nc1ccc(N2CCOCC2)cc1	-18.1	-9.0	-0.1	0.5	4.2	.	-5.3	2.3
